Assay outcomes deposited in PubChem by National Center for Advancing Translational Sciences (NCATS).
TRPML1 agonist – agonists of human TRPML1 channel; 0.12% of 410,000 active; Q9GZU1; TRPML1-expressing cells, Ca2+ dye fluorescence, FDSS; host cell line not named in the record; reference of the full effect not given here; activation, % (concentration not given with the values); in the data active = activation above about 50%; inconclusive = about 30% to 50%; inactive = below about 30%; also: 0% is about no effect; the text of the record puts the active cut at 80%
Target sequence (Q9GZU1 whole entry, looked up): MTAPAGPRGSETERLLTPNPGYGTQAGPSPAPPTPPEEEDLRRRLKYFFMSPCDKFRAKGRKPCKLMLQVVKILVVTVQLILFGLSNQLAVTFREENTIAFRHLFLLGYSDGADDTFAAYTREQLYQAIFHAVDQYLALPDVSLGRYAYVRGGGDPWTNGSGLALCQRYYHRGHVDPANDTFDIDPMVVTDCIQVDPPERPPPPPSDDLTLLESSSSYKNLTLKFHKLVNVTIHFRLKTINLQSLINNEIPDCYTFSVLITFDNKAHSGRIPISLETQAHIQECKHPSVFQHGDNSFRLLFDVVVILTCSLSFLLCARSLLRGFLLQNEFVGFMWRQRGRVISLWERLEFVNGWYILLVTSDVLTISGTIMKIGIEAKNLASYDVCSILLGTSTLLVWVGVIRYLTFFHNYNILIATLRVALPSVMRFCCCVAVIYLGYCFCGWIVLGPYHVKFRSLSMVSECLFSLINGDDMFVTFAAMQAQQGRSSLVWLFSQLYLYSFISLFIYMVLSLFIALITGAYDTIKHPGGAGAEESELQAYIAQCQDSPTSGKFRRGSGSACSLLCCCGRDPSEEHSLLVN
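Kinetic FDSS Ca2+ read in Tet-induced TRPML1-DL cells (ABD Ca8 dye plus quencher, 45-90 min RT loading): baseline, then compound, then 110 s agonist window; EC80 agonist 54-4 at 4uM final added afterwards for a 110 s antagonist window.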
TRPML1 inh – human mucolipin-1 channel inhibition | Q9GZU1 | TRPML1-inducible cells, Ca2+ dye fluorescence, FDSS; hits give low values; inhibition of EC80 agonist-evoked calcium signal | activity change, negative = inhibition, % (test concentration not listed) | 0.02% of 390,000 active; in the data active means activity change below about -50%; inconclusive means about -30% to -50%; inactive means above about -30%;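 also: stimulus is agonist 54-4 at its EC80 concentration; % is scaled to controls: 0 for no effect and ±100 for the full control effect; compound concentration not given in the record; the text of the record puts the active cut at -80%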
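Calcium fluorescence in TRPML1-DL cells induced overnight with Tet: a 110 s read after compound pin addition, then a 110 s antagonist read after challenge with 54-4 at 4 uM final (EC80).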
gsp antag – gsp mutant antagonism. Potency, µM (titrated, usually from 76.9 µM), for inactives: top-dose activity change, negative = inhibition, most hits filed as inhibitors. 0.4% of 340,000 active. gsp-mutant cells, cAMP HTRF, 30 min; control for the full effect not named in the record; active = falling curve of any shape with a large fitted effect; inconclusive = falling curve, mostly with a smaller effect; inactive = flat or rising curve; cell line not stated here;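 also: intracellular cAMP measured with PDE inhibitor Ro 20-1724 present during compound exposure; potency is read from the fitted curve at half-maximal effect; % is scaled to controls: 0 for no effect and ±100 for the full control effect; nearly all actives have a fitted effect of over 65% in size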
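Cells, 2000/well, grown 16–24 h in DMEM 10% FBS with 0.5 mg/ml G418, then compounds plus […] (300 uM addition stock), 30 min at 37C. cAMP read by HTRF (cAMP-d2 and anti-cAMP antibody-K in lysis buffer) after 30 min RT.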
Menin MLL FP FL – menin-MLL binding inhibition, fluorescein peptide. Fluorescence polarization, fluorescein-MLL peptide displacement from menin. FP activity change, % at 61.4 µM. 290,000 tested, under 10 active; inconclusive = falling polarisation curve, or a change in total fluorescence; inactive = total fluorescence flat and polarisation flat or rising; no compound was filed as active; the % refers to the polarisation; negative = inhibition;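 also: % of control where 0% means no effect; inhibitors lower the polarisation; unlabelled MLL peptide was the positive control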
gsp ag – agonists of gsp mutant (McCune-Albright syndrome); gsp mutant cells, cAMP HTRF, 30 min; control for the full effect not named in the record; Potency, µM (series often up to 76.9 µM), for inactives: at the highest dose activation (cAMP increase), actives largely listed as activators; 0.13% of 340,000 active; active = well fitted activation curve with a large enough effect; inconclusive = small, poorly fitted or top-dose-only effect, or another doubt; inactive = no such curve, though single readings can be large or run the other way; cell line not stated here;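 also: phosphodiesterase inhibitor Ro 20-1724 added with compounds to block cAMP breakdown; potency is read from the fitted curve at half-maximal effect; nearly all actives have a fitted effect of over 60% in size; about a fifth of the inactives were tested at one dose only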
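Cells in DMEM/10% FBS with G418 were pretreated with compounds in DMSO plus […] (300 uM stock) for 30 min at 37C. cAMP was measured by HTRF (cAMP-d2 plus anti-cAMP antibody-K) after 30 min at room temperature.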
ClpP mod – qHTS Assay for Activators of ClpP; ATP-dependent Clp protease proteolytic subunit (Bacillus subtilis (strain 168)), P80244; purified B. subtilis ClpP, FRET peptide cleavage, 20 min; Potency, µM (doses to about 57.5 µM), inactives show at the highest dose activity change, negative = active; 1.9% of 340,000 active; AID 651965, 2013; active = well fitted falling curve with a large enough effect; inconclusive = small, poorly fitted or top-dose-only effect; inactive = no such curve, though single readings can be large or run the other way; also: potency is read from the fitted curve at half-maximal effect; the source files actives as falling curves though it sought activators and does not explain the sign; nearly all actives have a fitted effect of over 65% in size; many hits overshoot -100%
Target sequence (P80244 whole entry, looked up): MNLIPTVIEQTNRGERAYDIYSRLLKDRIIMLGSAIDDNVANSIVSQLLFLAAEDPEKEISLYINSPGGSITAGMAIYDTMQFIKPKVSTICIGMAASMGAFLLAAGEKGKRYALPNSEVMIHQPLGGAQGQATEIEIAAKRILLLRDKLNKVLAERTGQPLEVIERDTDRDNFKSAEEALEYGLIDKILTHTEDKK
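FRET quenching reversal measured ClpP activation: 10 microg/mL B. subtilis ClpP at pH 8 with the FRET-FV decapeptide, read at 430 nm after 320 nm excitation. The 20-min minus 0-min signal was scaled between DMSO/no-enzyme wells and ADEP (5.8 microM final).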
An asterisk follows results filed as active; [ ] = remark or other dose.

Results for COc1cccc2c1OC[C@@H](CO)[C@H]2N(C)C(=O)Nc1ccccc1 ?
TRPML1 agonist: -0.1; TRPML1 inh: -10; gsp antag: -8%; Menin MLL FP FL: 2.2; gsp ag: -2%; ClpP mod: -0.4%

Results for O=C(COC(=O)c1ccccc1[N+](=O)[O-])Nc1nnc(-c2ccccc2)o1 ?
TRPML1 agonist: -0.2; TRPML1 inh: 26; gsp antag: -5%; gsp ag: -29%[15.4 µM]

Results for CN(C)CCN(C(=O)C1CCCCC1)c1nc2cc3c(cc2s1)OCCO3 ?
TRPML1 agonist: -0.1; TRPML1 inh: -25; gsp ag: 20%; ClpP mod: -0.2%

Results for COc1cc(Cl)ccc1OCc1cc(C(=O)N2C[C@H]3CC[C@H]2C3)no1 ?
TRPML1 agonist: 2.4; TRPML1 inh: 11; gsp antag: -7%; gsp ag: 10%; ClpP mod: 0.9%

Results for CC1CN(S(=O)(=O)c2ccccc2)C(C)N1C(=O)N1CCOCC1 (stereo not drawn) ?
TRPML1 agonist: 0.6; TRPML1 inh: 19; gsp antag: 9%; Menin MLL FP FL: -2.2; gsp ag: -2%[15.4 µM]; ClpP mod: -0.4%

How did CCc1nc2c(OCCc3cccc(OC)c3)cccn2c1N(C)C(=O)c1ccc(OC)cc1 do in these assays?
TRPML1 agonist: -0.9; TRPML1 inh: 62; ClpP mod: -4.3%

What do the screens show for `Cc1ccccc1CC(=O)NCC1CCCCC1`?
TRPML1 agonist: -0.5; TRPML1 inh: -2; gsp antag: 1%; Menin MLL FP FL: 1.3; gsp ag: -41%[inhibitor]

Results for O=C(NCCC(=O)N1CCN(c2cccc(Cl)c2)CC1)c1ccc(Br)cc1 ?
TRPML1 agonist: 4.6; TRPML1 inh: 24; gsp antag: -20%; gsp ag: -2%; ClpP mod: -3.0%

How did COc1ccc(C(=O)NC2CC2)cc1OC1CCN(Cc2cnn(C)c2C)CC1 do in these assays?
TRPML1 agonist: 0.2; TRPML1 inh: 20; gsp antag: 5%; gsp ag: 2%; ClpP mod: -3.1%

How did COC(=O)c1c(NC(=O)C2Cc3ccccc3C(=O)O2)sc2c1CCCC2 (stereo not drawn) do in these assays?
TRPML1 agonist: 1.0; TRPML1 inh: 5; gsp antag: 0%; Menin MLL FP FL: 6.0; gsp ag: -7%; ClpP mod: 95%

Results for CNC(=O)/C(C#N)=C/c1ccc(-c2ccccc2[N+](=O)[O-])o1 ?
TRPML1 agonist: -0.2; TRPML1 inh: -4; gsp antag: -8%; Menin MLL FP FL: -2.2; gsp ag: -15%

How did Cn1c(=O)cc(Nc2ccccc2)c2c(=O)n(-c3ccccc3)c(=O)n(-c3ccccc3)c21 do in these assays?
TRPML1 agonist: 0.5; TRPML1 inh: -7; gsp antag: inconclusive; Menin MLL FP FL: 0.2; gsp ag: inconclusive

Results for O=C1CCC(C(=O)N2CCCC2)CN1CCc1cccc(F)c1 (stereo not drawn) ?
TRPML1 agonist: -0.2; TRPML1 inh: 0; gsp antag: 6%; Menin MLL FP FL: -0.5; gsp ag: -4%; ClpP mod: 3.2%

What do the screens show for `Cc1ccc(C)c(NC(=O)COc2coc(CN3CCc4ccccc43)cc2=O)c1`?
TRPML1 agonist: -0.3; TRPML1 inh: -10; gsp antag: -27%; gsp ag: 21%[15.4 µM]; ClpP mod: -3.0%

How did O=C(Nc1ccc2nc(SCCOc3ccccc3Cl)sc2c1)c1cccs1 do in these assays?
TRPML1 agonist: -0.1; TRPML1 inh: -9; ClpP mod: 11µM*

What do the screens show for `CCCn1c(SCC(=O)NC(C)c2ccccc2)n[nH]c1=O` (stereo not drawn)?
TRPML1 agonist: -0.1; TRPML1 inh: 17; gsp antag: 5%; Menin MLL FP FL: -0.1; gsp ag: -6%[15.4 µM]; ClpP mod: -3.0%

What do the screens show for `CC(C)c1nnc(NC(=O)C2c3ccccc3Oc3ccccc32)s1`?
TRPML1 agonist: 0.1; TRPML1 inh: -2; gsp antag: 1%; Menin MLL FP FL: -2.5; gsp ag: 22%; ClpP mod: 0.1%

Results for O=C(Nc1ccccc1)c1c(F)c(F)c(F)c(F)c1F ?
TRPML1 agonist: 0.1; TRPML1 inh: -1; gsp antag: -8%; Menin MLL FP FL: 0.5; gsp ag: 29%; ClpP mod: 0.1%

Results for C/C(=N\NC(=O)COc1cc(C)cc(C)c1)c1ccc(N2CCOCC2)cc1 ?
TRPML1 agonist: 2.1; TRPML1 inh: 4; gsp antag: -9%; Menin MLL FP FL: 1.1; gsp ag: 1%[15.4 µM]

What do the screens show for `CCn1ncc(Br)c1C(=O)Nc1c(C)nn(Cc2c(F)c(F)c(F)c(F)c2F)c1C`?
TRPML1 agonist: -0.3; TRPML1 inh: 0; gsp antag: -32%; gsp ag: -13%[15.4 µM]; ClpP mod: -3.1%

Results for Cc1ccc(S(=O)(=O)N2CCOCC2)c(C)c1-n1cnnn1 ?
TRPML1 agonist: 0.7; TRPML1 inh: 5; gsp antag: 0%; Menin MLL FP FL: 0.0; gsp ag: -40%[inhibitor]; ClpP mod: 0.6%

Results for CC(=O)Nc1cccc(NC(=O)c2cccc(OCc3ccccc3)c2)c1 ?
gsp antag: -27%; Menin MLL FP FL: -2.0; gsp ag: 4%; ClpP mod: 1.0%

Results for Cc1cccc(-n2ncc3c2CCCC3NC(=O)CCCN2CCCCC2=O)c1C (stereo not drawn) ?
TRPML1 agonist: -0.1; TRPML1 inh: 1; gsp antag: 9%; gsp ag: -8%[15.4 µM]; ClpP mod: -4.8%

How did O=C(N/N=C1\CCSC1)c1cc(Cl)ccc1O do in these assays?
TRPML1 agonist: 0.0; TRPML1 inh: 31; gsp antag: -3%; Menin MLL FP FL: -0.9; gsp ag: 18%[15.4 µM]

Grouped by structure: those above containing a thiophene ring, fused or not (2)
How did COC(=O)c1c(NC(=O)C2Cc3ccccc3C(=O)O2)sc2c1CCCC2 (stereo not drawn) do in these assays?
TRPML1 agonist: 1.0; TRPML1 inh: 5; gsp antag: 0%; Menin MLL FP FL: 6.0; gsp ag: -7%; ClpP mod: 95%

How did O=C(Nc1ccc2nc(SCCOc3ccccc3Cl)sc2c1)c1cccs1 do in these assays?
TRPML1 agonist: -0.1; TRPML1 inh: -9; ClpP mod: 11µM*

Further compounds follow.
What do the screens show for `COCCN(C(=O)c1cc(Cl)ccn1)c1c(N)n(Cc2ccccc2)c(=O)[nH]c1=O`?
TRPML1 agonist: 2.2; TRPML1 inh: 7; gsp antag: 12%; gsp ag: 17%; ClpP mod: 1.0%

Results for CC(C)CCOc1ccc(/C=C2\CCn3c2nc2cc(C(=O)O)ccc2c3=O)cc1 ?
TRPML1 agonist: -0.2; TRPML1 inh: -5; gsp antag: -23%; Menin MLL FP FL: -16; gsp ag: -51%[inhibitor]; ClpP mod: -4.9%

How did CCOC(=O)C1=C(CSc2nc3ccccc3s2)NC(=O)NC1c1cccc([N+](=O)[O-])c1 (stereo not drawn) do in these assays?
TRPML1 agonist: -0.3; TRPML1 inh: 5; gsp antag: -5%; Menin MLL FP FL: 1.1; gsp ag: inconclusive; ClpP mod: -17%

How did Cc1ccc(-n2nc(C(=O)NN)c(C)c(C#N)c2=O)cc1Cl do in these assays?
TRPML1 agonist: 0.2; TRPML1 inh: -11; gsp antag: -4%; Menin MLL FP FL: -1.5; gsp ag: inconclusive

What do the screens show for `CC(=O)Nc1nc(C=C(Cl)Cl)cs1`?
TRPML1 agonist: -1.1; TRPML1 inh: 24; gsp antag: -1%; Menin MLL FP FL: -2.1; gsp ag: -51%[inhibitor]; ClpP mod: -1.9%

What do the screens show for `COCCN(C(=O)COC(=O)c1ccccc1Nc1ccccc1)c1c(N)n(Cc2ccccc2)c(=O)[nH]c1=O`?
TRPML1 agonist: -0.5; TRPML1 inh: -7; gsp antag: -15%; gsp ag: -13%[15.4 µM]

Results for CCc1ccccc1NC(=O)CN(c1ccccc1OC)S(=O)(=O)c1ccc(C)cc1 ?
TRPML1 agonist: 1.6; TRPML1 inh: 32; ClpP mod: -2.5%

What do the screens show for `CC(C)Nc1nc(Cl)nc(NNC(=O)C(C)Oc2ccccc2)n1` (stereo not drawn)?
TRPML1 agonist: 1.3; TRPML1 inh: 0; gsp antag: -9%; Menin MLL FP FL: -4.7; gsp ag: -7%; ClpP mod: 0.0%

What do the screens show for `O=C(CCCC1=NS(=O)(=O)c2ccccc2N1)N1CCN(c2ccccc2)CC1`?
TRPML1 agonist: -0.5; TRPML1 inh: 24; gsp antag: 1%; Menin MLL FP FL: 0.2; gsp ag: 17%; ClpP mod: 0.4%

Results for O=C(NCC1CCCO1)c1ccccc1 (stereo not drawn) ?
TRPML1 agonist: -0.3; TRPML1 inh: 10; gsp antag: 11%; Menin MLL FP FL: 5.9; gsp ag: -5%; ClpP mod: -2.3%

What do the screens show for `O=C(CNC(=S)N(Cc1ccccc1F)C1CCCCC1)NC1CC1`?
TRPML1 agonist: 1.7; TRPML1 inh: -15; gsp antag: -1%; Menin MLL FP FL: 3.2; gsp ag: 4%; ClpP mod: -0.7%

How did CC(C)(C)NC(=O)NC(=O)CN1CCN(c2ccccc2O)CC1 do in these assays?
TRPML1 agonist: -0.8; TRPML1 inh: 0; gsp antag: 5%; Menin MLL FP FL: -4.0; gsp ag: 0%[15.4 µM]; ClpP mod: -0.4%

Results for CC1CCC2(CC1)NC(=O)N(Cc1cc(=O)n3ccsc3n1)C2=O (stereo not drawn) ?
TRPML1 agonist: -0.3; TRPML1 inh: 6; gsp antag: -2%; Menin MLL FP FL: -3.4; gsp ag: 18%[15.4 µM]

What do the screens show for `N#CCC(=N)N1CCN(c2cccc(Cl)c2)CC1`?
TRPML1 agonist: 1.0; TRPML1 inh: -18; gsp antag: 4%; Menin MLL FP FL: -0.3; gsp ag: -14%; ClpP mod: 1.3%

Results for COc1ccc(C(=O)N2c3ccccc3C(=O)OC2c2ccc3c(c2)OCO3)cc1 (stereo not drawn) ?
TRPML1 agonist: 1.5; TRPML1 inh: 8; gsp antag: -20%; Menin MLL FP FL: 4.6; gsp ag: -34%[inhibitor]; ClpP mod: -29%

How did CCn1c(SCC(=O)NNC(=O)c2ccc(OC)cc2)nnc1-c1ccco1 do in these assays?
TRPML1 agonist: 1.1; TRPML1 inh: 2; gsp antag: 12%; Menin MLL FP FL: 9.7; gsp ag: -11%[15.4 µM]

What do the screens show for `Cc1ccc(S(=O)(=O)N2CCOCC2)cc1C(=O)Nc1ccncc1`?
TRPML1 agonist: -0.7; TRPML1 inh: -7; gsp antag: 10%; gsp ag: 0%; ClpP mod: 0.2%

What do the screens show for `O=C(NN1CCOCC1)c1cc(-c2ccc(Cl)c(Cl)c2)nc2ccccc12`?
TRPML1 agonist: 5.0; TRPML1 inh: -3; gsp antag: 5%; Menin MLL FP FL: 5.7; gsp ag: -40%[inhibitor]; ClpP mod: 1.0%
